# HPGD block – HPGD (human) dehydrogenase inhibition. purified HPGD, NADH fluorescence kinetic, PGE2 substrate. Potency, µM, inactives show at the highest dose activity change, negative = inhibition, usual class: inhibitors. hit rate 4.3% among 150,000; active = well fitted inhibition curve with a large enough effect (not every such curve was filed as active); inconclusive = small, poorly fitted or top-dose-only effect, or another doubt; inactive = no such curve, though single readings can be large or run the other way;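 also: top concentration of the series not given in the record; plate controls included wells without enzyme; inactives centre near -10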
# Target sequence (P15428 whole entry, looked up): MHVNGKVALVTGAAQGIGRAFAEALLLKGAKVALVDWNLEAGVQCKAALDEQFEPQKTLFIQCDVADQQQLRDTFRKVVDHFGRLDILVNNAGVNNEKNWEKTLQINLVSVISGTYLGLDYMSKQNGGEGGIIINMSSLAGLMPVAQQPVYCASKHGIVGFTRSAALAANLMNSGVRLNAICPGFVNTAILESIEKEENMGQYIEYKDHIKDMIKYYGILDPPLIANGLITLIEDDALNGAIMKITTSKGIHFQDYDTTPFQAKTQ
#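 NADH formation kinetics: reaction with 30 uM PGE2 and 1 mM NAD+ (final), 20 nM enzyme, Tris-HCl pH 8 with Tween 20, after 15 min compound preincubation at room temperature. Fluorescence change, last versus first of five reads.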
# Starred values were filed as active, the others as inactive; ? = inconclusive; & = joins results of further samples. % is scaled to controls: 0 for no effect and ±100 for the full control effect; potency is read from the fitted curve at half-maximal effect. The list is partial; rates above refer to the full screens.
compound	HPGD block
Cc1ccc(CN2CCN(/N=C/c3cc(Br)ccc3O)CC2)cc1	-3%
CCOc1ccc(CNC(=O)C2CC(=O)N(C3CCCC3)C2)cc1OC (stereo not drawn)	-13%
COc1ccc(CNC(=O)C(c2ccc(C)o2)N(Cc2cccs2)C(=O)Cc2cccs2)cc1 (stereo not drawn)	-18%
CCOc1ccc(-c2nnc3n2N=C(c2ccc(OC)cc2)CS3)cc1	-7%
COc1ccc(-c2noc(CCCC(=O)NCc3ccco3)n2)cc1OC	-14%
CCOC(=O)Cn1c(=N)n(Cc2ccccc2)c2ccccc21	-7%
O=C1CCCN1CCCNc1ncnc2c1cnn2-c1ccc(Cl)cc1	-23%
O=C(Nc1ccc(N2CCOCC2)cc1N1CCOCC1)c1ccc([N+](=O)[O-])cc1	-3%
CCCCn1c(-c2ccncc2)nc2c1c(=O)[nH]c(=O)n2CC(C)C	-22%
CCN(CC)c1ccc(/C=N/N=C(c2ccccc2)c2ccccc2)c(O)c1	-7%
Cc1cc(OCC(=O)Nc2cc(-c3nn4c(C)nnc4s3)ccc2C)ccc1Cl	-23%
Cc1c(C(=O)OCC(=O)N(CCC#N)c2ccccc2)oc2c1ccc1ccccc12	?
CCOC(=O)/C=C1\SCC(=O)N1CC(=O)c1ccc[nH]1	-16%
CCOc1ccc(NC2=NCC(=O)N2CCc2ccccc2)cc1	-12%
C=C(C)CNC(=S)N/N=C\c1ccc2c(c1)OCO2	-7%
COc1ccc(C2=NO[C@@H]3[C@@H]4C[C@@H]([C@H]5C(=O)N(C)C(=O)[C@@H]45)[C@H]23)cc1	1%
Cc1ccc(S(=O)(=O)N2CCCCC2)cc1NS(=O)(=O)c1cccc(C(=O)O)c1	2%
Cc1ccc(CNC(=O)C(C)OC(=O)c2ccco2)cc1 (stereo not drawn)	-13%
Cc1ccc(S(=O)(=O)c2c(N)n(NC(=O)C3CC3)c3nc4ccccc4nc23)cc1	?
CCOc1ccc(S(=O)(=O)NCCOC)cc1C	-20%
CCCCCn1c(=O)[nH]c2cc(C(=O)NCCN(CC)CC)ccc2c1=O	-14%
COc1ccc(C(=O)C(CCC(CNC(C)(C)C)C(=O)c2ccc(OC)cc2)CNC(C)(C)C)cc1 (stereo not drawn)	-4%
CC(C)NC[C@@H](O)COc1ccccc1-n1cccc1	1%
O=[N+]([O-])c1ccc(/C=N/N2CCN(c3ccncc3S(=O)(=O)N3CCCCC3)CC2)cc1	1%
O=C(C1CCN(S(=O)(=O)c2cccc3cccnc23)CC1)N1CCCC1	-11%
Cc1cccc(C(=O)N2CCC(n3nnc4cc(F)ccc43)CC2)c1	-10%
COC(=O)CC1C(=O)NCCN1C(=S)Nc1ccccc1 (stereo not drawn)	-14%
COc1ccc(OCc2ccc(C(=O)O)cc2)cc1	-7%
O=C(O)CC(=O)NC12CC3CC(CC(C3)C1)C2	-9%&-3%
Cc1ccc(C(=O)c2c(C)oc3c2C(=O)C(=O)c2ccccc2-3)cc1	20µM*
O=C1CCN(S(=O)(=O)c2ccccc2)C2CCCCC12 (stereo not drawn)	-8%
S=c1[nH]nc(COc2ccccc2)n1/N=C/C=C/c1ccccc1	5µM*
Cc1ccc(/C=C/C(=O)Nc2cccnc2)o1	22µM*
COc1nc(N/N=C/c2ccc(C)cc2)nc(N2CCCCC2)n1	-2%
CCOC(=O)c1cccc(NC(=O)/C=C/c2cccc([N+](=O)[O-])c2)c1	-13%
CNc1nc(NCCOC23CC4CC(CC(C4)C2)C3)nc(OCC(F)(F)F)n1	-11%
CCn1c2ccccc2c2cc(NC(=O)c3cccc([N+](=O)[O-])c3C)ccc21	-7%
COCCNc1cc(N)c([N+](=O)[O-])cc1[N+](=O)[O-]	-16%
CCC(CC)C(=O)Nc1ccccc1-n1cccc1	-2%
O=C(Cn1cc2c(n1)CCCCC2)NCc1ccccn1	-2%
NC(=O)CC[C@@H]1NC(=O)[C@@H]2CCCN2C(=O)c2cc([N+](=O)[O-])cc(I)c2NCCC[C@@H](C(N)=O)NC1=O	-9%
CCC(C)NC(=O)C1CCCN(c2nc(C)cc(OC)n2)C1 (stereo not drawn)	-18%
COC(=O)Nc1ccc(=O)n(Cc2c(Cl)cccc2Cl)c1	-25%
O=C(NNc1c2ccccc2nc2ccccc12)c1cc2ccccc2cc1O	-15%
COc1ccccc1N(CC(O)CN1C(=O)NC(C)(C)C1=O)S(=O)(=O)c1ccc(C)cc1 (stereo not drawn)	-9%
COc1ccc(/C=C2\C(=O)N(Cc3ccc(F)cc3)CC(=O)N2Cc2ccccc2)cc1	-3%
CN(C)C1C(=O)C(C(N)=O)=C(O)[C@@]2(O)C(=O)C3=C(O)c4c(O)ccc(Cl)c4[C@@H](O)C3C[C@@H]12 (stereo partly drawn)	-22%
Cc1cc(=O)n2[nH]c(COc3ccccc3)nc2n1	0%
O=C(c1cccs1)N1CCN(CCc2ccccc2)CC1	-1%
CCc1c(C)nc2ncnn2c1NCCc1ccc(OC)cc1	-16%

# Continued.
compound	HPGD block
COCCNC(=O)CNS(=O)(=O)c1ccc2nc(C)sc2c1	-3%
Cc1c(NC(=O)CC(C)C)c(=O)n(-c2ccccc2)n1C	-5%
Cc1cnc(NC(=O)C2COc3ccccc3O2)s1 (stereo not drawn)	-13%
COc1ccc(N2CCCn3c2nc2c3c(=O)n(Cc3ccc(F)cc3)c(=O)n2C)c(OC)c1	-17%
O=C(NC(=S)NCC1CCCO1)c1ccc(Cl)cc1 (stereo not drawn)	-2%
CC1CCCCN1CCCn1c(=S)[nH]c2ccccc2c1=O (stereo not drawn)	-2%
COC(=O)CN(c1cccc(OC)c1)S(C)(=O)=O	-7%
O=C(CCCCCn1c(SCC(=O)c2ccccc2)nc2ccccc2c1=O)NCc1ccco1	-30%
CCOc1ccc(/C=N/NC(=O)c2c(C)n(C)c3ccc(OC)cc23)cc1	-9%
COC(=O)c1cc(NC(=O)Cc2coc3cc(OC)ccc23)cc(C(=O)OC)c1	-20%
O=C(c1cc(C(F)(F)F)cc(C(F)(F)F)c1)N1CCC2(CC1)CN(c1ccccn1)C2	?
NC(=O)c1nc(C2CCCCC2)nc2c1[nH]c(=O)n2-c1ccc(F)cc1	?
CCOC(=O)C1=C(N)OC2=C(C(=O)CCC2)C1c1sccc1C (stereo not drawn)	-1%
COc1ccc(Nc2ccc(N3C(=O)CCCC3=O)cc2[N+](=O)[O-])cc1OC	-7%
CCC(=O)/C=C1/Sc2ccc(OC)cc2N1CC	-12%
CCOc1ccc(NC(=O)COC(=O)Cc2ccc(S(=O)(=O)N3CCOCC3)s2)cc1	-18%
COc1cccc(C2C(C(=O)c3sc(C)nc3C)=C(O)C(=O)N2CCN2CCOCC2)c1OC (stereo not drawn)	-25%
O=C(Oc1ccccc1/C=C\C(=O)c1cc2ccccc2o1)c1ccccc1	-24%
O=c1oc2ccccc2c(O)c1C=NCc1ccccn1	?
O=C(OCc1ccccc1)c1ccc(Br)o1	-11%
O=C(NC1=NCCS1)C1COc2ccccc2O1 (stereo not drawn)	-7%
CC1CC(C)CN(C(=O)c2ccc(CSc3nc4ccncc4[nH]3)cc2)C1 (stereo not drawn)	5.6µM*
COc1ccc(C(=O)N2CCC3(CC2)CN(C(=O)Nc2ccccc2)C3)cc1	-5%
CCNC(=O)CN(Cc1ccccc1)S(=O)(=O)c1ccccc1	-4%
NC(=O)c1ccc(-n2nnnc2Oc2ccccc2C(=O)N2CCOCC2)cc1	-8%
Cc1ccc(CSc2nnc(-c3ccccn3)n2C)cc1	-7%
CC(=O)C1=C(C)NC(=O)NC1c1cccs1 (stereo not drawn)	-1%
CCSc1nnc2c(n1)[nH]c1c(C)cccc12	?
COc1ccc2nc(NC(=O)CCNS(=O)(=O)c3ccc4c(c3)oc(=O)n4C)sc2c1	-2%
CCn1nc(C(=O)OCC(=O)NCCN2C(=O)CSC2=O)c2ccccc2c1=O	-5%
COC(=O)c1ccc(C2/C(=C(\O)c3cccc(OC)c3)C(=O)C(=O)N2CCCN2CCOCC2)cc1 (stereo not drawn)	-1%
CC1=C(C(=O)N2CCOCC2)C(c2cccc(C)c2)NC(=S)N1 (stereo not drawn)	-7%
COc1ccc(Cn2c(C3CC3)nc3ccc(NC(=O)c4ccco4)cc3c2=O)cc1	?
O=C(COc1cccc(Cl)c1)Nc1nc(-c2ccc(S(=O)(=O)N3CCOCC3)cc2)cs1	?
O=C(Oc1ccc2ccccc2c1Cl)N1CCCC1	-9%
S=c1[nH]nc(SCc2ccccc2Cl)c2[nH]cnc12	1.3µM*
Cc1noc(C)c1-c1nc(NCc2cccnc2)c2ccccc2n1	-7%
N#Cc1cccc(NC(=O)c2ccccc2C(=O)O)c1	1%
COc1cccc(-c2cn3nc4c(nc3n2)CCCC4)c1	-14%
COC(=O)c1ccc2c(c1)C(=O)/C(=C/c1ccc(C)cc1)O2	-19%
COc1cc(OC)nc(Oc2ccccc2C(=O)Oc2cccc(C)c2)n1	-6%
COc1cc([N+](=O)[O-])cc(/C=N/NC(=O)c2ccc(C)nc2)c1O	-13%
O=C(CCCCCNc1nc(=S)[nH]c2ccccc12)N1CCN(c2ccccn2)CC1	-14%
CC(=O)N1CCC2(CCCN(C(c3ccccc3)c3ccccc3)C2)CC1	-10%
COc1cccc(OC)c1OCCNCCO	-7%
Cc1cccc(Oc2cnn(C(C)(C)C)c(=O)c2Cl)c1	-20%
CCOC(=O)N1CCN(c2c(NCCCOC(C)C)c(=O)c2=O)CC1	-1%
COc1ccc(N2C(=O)C3[C@@H](C2=O)C2(Cl)C(Cl)=C(Cl)C3(Cl)C2(OC)OC)cc1 (stereo partly drawn)	-9%
Cc1ccc(Cc2cnc(NC(=O)/C(C#N)=C/c3ccc(-c4ccccc4[N+](=O)[O-])o3)s2)cc1	-20%
Cc1ccc(C)c(NC(=O)C2CC(O)CN2C(=O)OCc2ccccc2)c1 (stereo not drawn)	0%

# Reprinted at random: three entries already listed, in no set order.
compound	HPGD block
COC(=O)c1ccc(C2/C(=C(\O)c3cccc(OC)c3)C(=O)C(=O)N2CCCN2CCOCC2)cc1 (stereo not drawn)	-1%
COC(=O)c1ccc2c(c1)C(=O)/C(=C/c1ccc(C)cc1)O2	-19%
COc1cc(OC)nc(Oc2ccccc2C(=O)Oc2cccc(C)c2)n1	-6%

# Other results follow:
compound	HPGD block
COc1ccc(CNC2CCCc3ccccc32)cc1OC (stereo not drawn)	1%
COc1ccc(OCCNC(=O)C(c2ccccc2)c2ccccc2)cc1	-19%
O=C(Nc1ccc(N2CCCC2)c(Cl)c1)c1cccnc1	-26%
COc1ccc(C)cc1-n1nnnc1SCC(=O)NC(=O)NCc1ccco1	-14%
CCCOP(=O)(OCCC)C(NC(=O)C(C)(C)C)c1ccccc1 (stereo not drawn)	0%
CCCCCC(O)CCCC(=O)O (stereo not drawn)	-2%
Cc1ccc(CNc2nc3c([nH]2)c(=O)n(C)c(=O)n3C)cc1	-10%
O=C(CSc1nc(-c2ccccc2)nc2c1CCCC2)N1CCOCC1	-18%
COc1ccccc1N(CN1CCCC1=O)C(=O)COc1ccccc1	-3%
COc1ccc(C(C)=O)cc1COC(=O)c1cc(C)oc1C	-9%
O=C(Nc1ccc2nc3n(c(=O)c2c1)CCCCC3)c1ccccc1Cl	-20%
Cc1ccc(S(=O)(=O)Nc2cc(C)c(O)c(S(=O)(=O)c3ccc(C)cc3)c2)cc1	-11%
c1ccc2c[n+](CCCC[n+]3ccc4ccccc4c3)ccc2c1	-4%
CCCCC/C=C\C[C@@H](O)/C=C/C=C/C=C/[C@@H](O)CCCC(=O)O	-6%
COc1cc(NC(=O)C2=C(N3CCOCC3)/C(=C\c3ccc(Cl)cc3Cl)CC2)cc(OC)c1OC	-9%
COCCNC(=O)CN1CCN(C(c2ccccc2)c2ccccc2)CC1	-7%
CN(C(=S)NC(=O)c1ccccc1Br)C1CCCCC1	0%
COc1cc2c(cc1OC)CC(=O)N(C)CC2	-14%
CCCc1cn(S(=O)(=O)c2ccc(OC)cc2OC)nc1N	-5%
COc1cccc(C2=CC(c3ccc(C)cc3)n3ncnc3N2)c1 (stereo not drawn)	-12%
COc1ccc(-c2nnn(CC(=O)N(Cc3ccco3)C(C(=O)NCC3CCCO3)c3ccco3)n2)cc1 (stereo not drawn)	-5%
COc1ccc(CNC(=O)CN(Cc2ccccc2)C(=O)c2csnn2)cc1	-6%
N/C(=N\OC(=O)c1ccccc1Cl)c1ccccc1	11µM*
CC(=O)C1=C(C)N(Cc2ccccc2)C(=O)N[C@H]1c1cccs1	0%&-14%
O=C(NCc1ccc2c(c1)OCO2)c1ccc2c(=O)n(C3CCCC3)c(=O)[nH]c2c1	-16%
c1cc(CSSCc2ccncc2)ccn1	-14%
CCN(Cc1cc2ccc(C)cc2[nH]c1=O)C(=O)c1ccncc1	?

# HPGD block, entries above that show a hit
compound	HPGD block
Cc1ccc(C(=O)c2c(C)oc3c2C(=O)C(=O)c2ccccc2-3)cc1	20µM*
S=c1[nH]nc(COc2ccccc2)n1/N=C/C=C/c1ccccc1	5µM*
Cc1ccc(/C=C/C(=O)Nc2cccnc2)o1	22µM*
CC1CC(C)CN(C(=O)c2ccc(CSc3nc4ccncc4[nH]3)cc2)C1 (stereo not drawn)	5.6µM*
S=c1[nH]nc(SCc2ccccc2Cl)c2[nH]cnc12	1.3µM*
N/C(=N\OC(=O)c1ccccc1Cl)c1ccccc1	11µM*

# Screening results (PubChem)
